Compound activity deposited in PubChem by Southern Research Institute.
total CFTR = total CFTR protein upregulators, primary screen, cell-based, HeLa F508del-CFTR, immunofluorescence, viability (AID 1224863); calls, or highest fold increase where a dose series was run; HeLa F508del-CFTR, immunofluorescence total CFTR, 24 h; by the record results were divided by relative cell number; some inactives read as strong as hits; actives 0.1% (n = 10,000); in the data nearly all actives have a first-pass fold increase above 1.5; a few of its hits are not listed in these tables;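 further: total CFTR protein by anti-CFTR immunofluorescence in fixed cells; first pass at 25 µM or 10 µg/mL by library and series up to twice that; 1 = untreated cells; first-pass hits also needed half or more of the cells alive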
total CFTR fold 25 µM = also measured in total CFTR; calls as there; fold increase; measured here: primary screen single dose 25 uM; library dosed in µM
total CFTR fold 10 ug/mL = also measured in total CFTR; calls as there; fold increase; measured here: primary screen 10 ug/mL
total CFTR viability 25 µM = also measured in total CFTR; calls as there; viability, %; measured here: primary viability 25 uM; library dosed in µM;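 0% = killed and 100% = untreated cells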
total CFTR viability 10 ug/mL = also measured in total CFTR; calls as there; viability, %; measured here: primary viability 10 ug/mL;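 0% = killed and 100% = untreated cells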
* marks the source's active call; other numbers are inactive results; i = inactive; x = not tested or not shown; & = joins results of further samples. A portion of the library; the hit share may differ from the screen's.

Start of the listing, in advance:
SMILES	total CFTR	total CFTR fold 10 ug/mL	total CFTR viability 10 ug/mL	others
O=c1cc(CSc2nnnn2Cc2ccco2)c2cc3c(cc2o1)CCC3	i	0.99	106
CC1(C)CC(=O)c2sc(NC(=O)CCCN3C(=O)NC(C)(C)C3=O)nc2C1	i	0.93	84
CC1CCN(c2nnc(SC(C(=O)NC(N)=O)C(C)C)n2Cc2ccco2)CC1 (stereo not drawn)	i	1.1	99
CC1CCN(C(=O)Cn2ccnc2)CC1	i	0.96	103
Cc1nc(SCC2CC2(Cl)Cl)c2c(C)c(C)sc2n1 (stereo not drawn)	i	1.1	103
Cc1ccn2c(=O)cc(CSc3ncnc4ccsc34)nc2c1	i	1	78
O=C(CCC(=O)c1ccc(Cl)s1)NC1CCC2CCCCC2C1 (stereo not drawn)	i	1	103
Cn1c(N)c(C(=O)COc2ccc(Cl)cc2Cl)c(=O)n(C)c1=O	i	0.97	95
O=S1(=O)CCC(N(Cc2cccs2)S(=O)(=O)c2ccc(F)cc2)C1 (stereo not drawn)	i	1.2	87
Cc1ccc(-c2csc(Cc3csc(C)n3)n2)s1	i	0.98	74
O=C(Oc1ccccc1C(=O)O)c1ccccc1O	i	x	x	total CFTR fold 25 µM=1;total CFTR viability 25 µM=108
CC(N)c1ccc2c(c1)OCCCO2 (stereo not drawn)	i	1	89
CN(Cc1cccc(Cl)c1Cl)CN1C(=O)C(=O)N(C2CC2)C1=O	i	1	108
CNS(=O)(=O)c1ccc(NS(=O)(=O)c2ccc3c(c2)CCCC3)cc1	i	0.86	93
CCCCNS(=O)(=O)c1ccc(S(C)(=O)=O)cc1	i	1.1	98
Cn1nnnc1SCc1csc(-c2ccc(F)cc2)n1	i	1.1	108
N#Cc1ccnc(N2CCN(Cc3cc(F)cc4cccnc34)CC2)c1	i	1	91
O=C1CCCN1CCCNc1ccc([N+](=O)[O-])cc1Cl	i	0.98	97
COc1ccccc1C(C)N(C)S(=O)(=O)N1CC(C)OC(C)C1 (stereo not drawn)	i	0.97	103
NC(=O)N1CCCC(C(=O)NCC2CCCC2)C1 (stereo not drawn)	i	0.97	94

Results, from the start:
SMILES	total CFTR	total CFTR fold 10 ug/mL	total CFTR viability 10 ug/mL	others
O=c1cc(CSc2nnnn2Cc2ccco2)c2cc3c(cc2o1)CCC3	i	0.99	106
CC1(C)CC(=O)c2sc(NC(=O)CCCN3C(=O)NC(C)(C)C3=O)nc2C1	i	0.93	84
CC1CCN(c2nnc(SC(C(=O)NC(N)=O)C(C)C)n2Cc2ccco2)CC1 (stereo not drawn)	i	1.1	99
CC1CCN(C(=O)Cn2ccnc2)CC1	i	0.96	103
Cc1nc(SCC2CC2(Cl)Cl)c2c(C)c(C)sc2n1 (stereo not drawn)	i	1.1	103
Cc1ccn2c(=O)cc(CSc3ncnc4ccsc34)nc2c1	i	1	78
O=C(CCC(=O)c1ccc(Cl)s1)NC1CCC2CCCCC2C1 (stereo not drawn)	i	1	103
Cn1c(N)c(C(=O)COc2ccc(Cl)cc2Cl)c(=O)n(C)c1=O	i	0.97	95
O=S1(=O)CCC(N(Cc2cccs2)S(=O)(=O)c2ccc(F)cc2)C1 (stereo not drawn)	i	1.2	87
Cc1ccc(-c2csc(Cc3csc(C)n3)n2)s1	i	0.98	74
O=C(Oc1ccccc1C(=O)O)c1ccccc1O	i	x	x	total CFTR fold 25 µM=1;total CFTR viability 25 µM=108
CC(N)c1ccc2c(c1)OCCCO2 (stereo not drawn)	i	1	89
CN(Cc1cccc(Cl)c1Cl)CN1C(=O)C(=O)N(C2CC2)C1=O	i	1	108
CNS(=O)(=O)c1ccc(NS(=O)(=O)c2ccc3c(c2)CCCC3)cc1	i	0.86	93
CCCCNS(=O)(=O)c1ccc(S(C)(=O)=O)cc1	i	1.1	98
Cn1nnnc1SCc1csc(-c2ccc(F)cc2)n1	i	1.1	108
N#Cc1ccnc(N2CCN(Cc3cc(F)cc4cccnc34)CC2)c1	i	1	91
O=C1CCCN1CCCNc1ccc([N+](=O)[O-])cc1Cl	i	0.98	97
COc1ccccc1C(C)N(C)S(=O)(=O)N1CC(C)OC(C)C1 (stereo not drawn)	i	0.97	103
NC(=O)N1CCCC(C(=O)NCC2CCCC2)C1 (stereo not drawn)	i	0.97	94
O=C1c2ccccc2S(=O)(=O)N1Cc1cc(-c2cccs2)on1	i	1	102
OCC(S)CS (stereo not drawn)	i	x	x	total CFTR fold 25 µM=0.92;total CFTR viability 25 µM=101
CC1CCN(CCCNc2ncnc3c2cnn3C)CC1	i	0.92	97
CN(C)CCCOc1nn(Cc2ccccc2)c2ccccc12	i	x	x	total CFTR fold 25 µM=1.1&1.1;total CFTR viability 25 µM=96&100
Cc1nccn1-c1c(N)cccc1Cl	i	1.1	90
CC(=O)NCc1ccc(-c2csc(NC(=O)CCc3ccco3)n2)s1	i	1.1	99
FC(F)(F)CN1CCN(c2nc(-c3cccnc3)nc3ccccc23)CC1	i	0.89	89
COc1ccc(OC)c(S(=O)(=O)N2CCN(Cn3ccn(Cc4ccccc4)c3=S)CC2)c1	i	0.9	101
CC1CN(CN2C(=O)C(=O)c3cc(Cl)ccc32)CC(C)O1 (stereo not drawn)	i	1.1	94
CCC(=O)O[C@H]1[C@H](O[C@@H]2[C@@H](C)[C@H](O[C@H]3C[C@@](C)(OC)[C@@H](O)[C@H](C)O3)[C@@H](C)C(=O)O[C@H](CC)[C@@](C)(O)[C@H](O)[C@@H](C)C(=O)[C@H](C)C[C@@]2(C)O)O[C@H](C)C[C@@H]1N(C)C	i	x	x	total CFTR fold 25 µM=1.2;total CFTR viability 25 µM=94
COCc1c(C(=O)OCC(=O)c2ccc(F)c(F)c2)oc2ccccc12	i	0.94	102
O=S(=O)(N1CCOCC1)N1CCN(c2ncc(C(F)(F)F)cc2Cl)CC1	i	1	99
COC(=O)c1ccc2[nH]c3c(c2c1)CN(C(=O)C(C)(C)C)CC3	i	1	88
COc1cc2c(cc1OC)N(CN1CCN(c3ccc(F)cc3)CC1)C(=O)C2=O	i	0.94	94
O=S(=O)(c1cc(Cl)ccc1Cl)N1CCN(Cc2ccccn2)CC1	i	1	89
O=C(Nc1nccs1)C1CCNCC1	i	1	90
CS(=O)(=O)c1ccc(Cl)c(S(=O)(=O)Nc2c(F)cccc2F)c1	i	0.98	94
C=CCNc1nc(C(=O)OCC(=O)N(CC(C)C)C2CCS(=O)(=O)C2)cs1 (stereo not drawn)	i	1	103
O=[N+]([O-])c1cc(S(=O)(=O)N2CCOCC2)ccc1OCc1ccc(OC(F)(F)F)cc1	i	0.86	83
Fc1ccc(CN(Cn2ncn(C3CC3)c2=S)C2CCCCC2)cc1	i	1.1	85
Cn1ccc2c(C(=O)O)ccnc21	i	1.2	105
O=C(NCCNc1ncccn1)C1CC2CCC1C2 (stereo not drawn)	i	0.97	95
CN(C)C(=O)CCNC(=O)/C=C/c1ccco1	i	1.1	101
CC(=O)c1sc(NC(C)(C)C)nc1C	i	0.93	91
O=C(Nc1ccc2oc(=O)[nH]c2c1)C1CCC1	i	1.1	97
S=c1n(CN(C2CCCC2)C2CC2)nc(N2CCOCC2)n1C1CC1	i	0.94	99
O=C(c1cccc(Br)c1)c1cc2ccccc2o1	i	0.96	92
O=C(NCC1CCCO1)C1CC(=O)N(c2cccc(Br)c2)C1 (stereo not drawn)	i	1.1	98
C[C@]12CCC3c4ccc(OS(=O)(=O)O)cc4CCC3C1CCC2=O (stereo partly drawn)	i	x	x	total CFTR fold 25 µM=1.1;total CFTR viability 25 µM=114
N#Cc1c(SCc2ccccc2F)noc1-c1ccc(Cl)c(Cl)c1	i	0.96	99
NS(=O)(=O)c1cc(C2(O)NC(=O)c3ccccc32)ccc1Cl (stereo not drawn)	i	x	x	total CFTR fold 25 µM=1.1;total CFTR viability 25 µM=114
O=C(OCc1cc(=O)oc2cc(O)ccc12)c1cc2ccccc2s1	i	0.89	114
N=C(N)c1ccc(N=NNc2ccc(C(=N)N)cc2)cc1	i	x	x	total CFTR fold 25 µM=1.1;total CFTR viability 25 µM=106
CCCCN(C(=O)C1CSC2(C)CCC(=O)N12)c1c(N)n(CCC)c(=O)[nH]c1=O (stereo not drawn)	i	1.2	93
CC(C)C(NC(=O)CCNC(=O)OC(C)(C)C)c1cccs1 (stereo not drawn)	i	0.95	77
O=C1C(=O)N(CN2CCC(C(=O)Nc3cnccn3)CC2)c2cc3c(cc21)OCCO3	i	0.98	77
O=C(c1ccoc1)N1CCN(S(=O)(=O)N2CCCC2)CC1	i	1	91
C=C(C)CN1C(=O)NC(C)(c2ccc(Cl)cc2Cl)C1=O (stereo not drawn)	i	1.2	95
C=C(Cl)CSc1nc2ccccc2c(=O)n1CC(=O)OC	i	1.1	103
CC(NS(=O)(=O)c1ccccc1Cl)C1CC2CCC1C2 (stereo not drawn)	i	1.1	76

The listing continues:
SMILES	total CFTR	total CFTR fold 10 ug/mL	total CFTR viability 10 ug/mL	others
N[C@@H](CCC(=O)N[C@@H](CS)C(=O)NCC(=O)O)C(=O)O	i	x	x	total CFTR fold 25 µM=1.1;total CFTR viability 25 µM=114
O=S(=O)(Nc1cc(Cl)ccc1F)c1ccc2c(c1)OCCO2	i	1.1	101
O=S(=O)(NCc1cccnc1-n1cncn1)c1ccc2c(c1)CCO2	i	1	88
Cc1ccc(C(=O)NCCSC2CCCC2)s1	i	0.9	87
CSCC(=O)Nc1sc2c(c1C(=O)N1CCOCC1)CCCC2	i	0.99	99
NC(N)=NC(N)=NCCc1ccccc1	i	x	x	total CFTR fold 25 µM=0.87;total CFTR viability 25 µM=84
Cc1ccc(C(=O)C2CCN(Cn3ncn(C(C)C)c3=S)CC2)c(C)c1	i	0.84	96
O=C(Nc1ccc(-n2cccn2)cc1C(F)(F)F)C12CC3CC(CC(Cl)(C3)C1)C2	i	0.87	81
O=S(=O)(NCC1(c2ccc3c(c2)OCCO3)CCCC1)C1=Cc2ccccc2CC1	i	0.94	97
O=S(=O)(NCC1(c2ccccc2)CC1)c1ccc(C(F)(F)F)cc1	i	0.93	93
O=C(Cc1csc(NC(=O)c2ccco2)n1)NC1CC2CC1C1CCCC21 (stereo not drawn)	i	1	101
C=NC(C(=O)NC1C(=O)N2C1SC(C)(C)C2C(=O)O)c1ccccc1 (stereo not drawn)	i	x	x	total CFTR fold 25 µM=1.1;total CFTR viability 25 µM=108
CCNC(=O)CCC/C=C\C[C@@H]1[C@@H](/C=C/C(O)CCc2ccccc2)[C@@H](O)C[C@@H]1O (stereo partly drawn)	i	x	x	total CFTR fold 25 µM=1.1;total CFTR viability 25 µM=103
CNC(=O)C1Cc2ccccc2CN1CN1C(=O)c2cccc([N+](=O)[O-])c2C1=O (stereo not drawn)	i	1.1	94
CSc1nc(COC(=O)c2ccc3c(c2)S(=O)(=O)N=C2CCCCCN23)cc(=O)[nH]1	i	1	111
CCOC(=O)N1CCN(Cn2ccn(-c3ccc(OC)cc3)c2=S)CC1	i	1.1	118
CC1CCN(C(CNC(=O)C2CCCN(S(C)(=O)=O)C2)C(C)C)CC1 (stereo not drawn)	i	0.96	104
COc1cc(/C=C2\C(=O)c3c(O)ccc(F)c3C2C)cc(OC)c1O (stereo not drawn)	i	0.78	76
OCCSc1nnc(N2CCCC2)n1-c1cccc(Cl)c1	i	0.9	94
CCCCCCn1c(N2CCCCC2)nc2c1c(=O)[nH]c(=O)n2C	i	1	90
Nc1nc2c(ncn2COCCO)c(=O)[nH]1	i	x	x	total CFTR fold 25 µM=1.1&1.2&1.1;total CFTR viability 25 µM=105&96&102
O=C(CCCCCCCC(=O)NCCO)NCCO	i	x	x	total CFTR fold 25 µM=1;total CFTR viability 25 µM=108
CC(C)CN1C(=O)C(=O)N(CN(C)Cc2ccc(Cl)cc2)C1=O	i	1.1	100
COc1ccc(-c2noc(CSc3nnc(N)s3)n2)c(OC)c1	1.1	1	59
CN(Cc1cnn(C)c1)Cn1nc(C2CC2)n(C)c1=S	i	1.2	99
CCCCC1CCC(N)CC1 (stereo not drawn)	i	0.94	91
O=C(NCCO[N+](=O)[O-])c1cccnc1	i	x	x	total CFTR fold 25 µM=1&1.1&0.95;total CFTR viability 25 µM=112&99&98
CCn1cnn(CN2CCC(c3nc4ccccc4s3)CC2)c1=S	i	1.1	86
CC(C)(C)OC(=O)N1CCN(c2ncnc3c2oc2ccccc23)CC1	i	0.96	92
O=C(COc1ccc(Cl)cc1)N1CCN(Cc2ccc3c(c2)OCO3)CC1	i	x	x	total CFTR fold 25 µM=1.1;total CFTR viability 25 µM=88
CCCCNS(=O)(=O)c1ccc(S(=O)(=O)N2CCOCC2)cc1	i	1.1	106
O=C(CN1C(=O)NC2(CCCC2)C1=O)c1cccs1	i	1.1	99
O=S(=O)(Nc1ccc(-n2cncn2)nc1)c1ccc2c(c1)OCCCO2	i	0.99	99
CC(NS(=O)(=O)N1CCCCCC1)c1ccc(S(C)(=O)=O)cc1 (stereo not drawn)	i	0.97	100
O=C1OCCC1Sc1nnc(-c2ccncc2)n1-c1ccc(Cl)cc1 (stereo not drawn)	i	1	89
Cc1ccc(C)c(S(=O)(=O)NCC(C)(C)N2CCOCC2)c1	i	1	100
NC(=O)CSc1nnc(SCC(=O)N(C2=CCCCC2)C2CC2)s1	i	0.95	94
CC1CCCN(CN2C(=O)NC3(CCCCC3C)C2=O)C1 (stereo not drawn)	i	0.98	97
